Yeast UUG start = modulators of start codon recognition fidelity in yeast; S. cerevisiae UUG-firefly luciferase reporter, luminescence/redox ratio; activity score, % at 18.7 µM; 350,000 compounds, 0.13% hits; AID 602363;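 active = replicate mean at a twofold rise or more, about +100% in these data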;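 also: firefly luciferase made from a UUG start codon reports start codon fidelity; reporter light over untreated wells divided by growth signal over untreated wells; some hits fall short of that in this replicate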
eIF4H inh = inhibitors of RNA binding by human eIF4H | eIF4H fluorescence polarization binding assay | inhibition, % at 35 µM | 290,000 compounds, 0.94% hits | AID 2012;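 active = 50% or more with normal probe brightness, or confirmed in later tests; inconclusive = above 50% with abnormal brightness, or retests that disagree; inactive = below 50% or failed in later tests; about a fifth of its hits are not listed in these tables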;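 also: calls also rest on retests at 20 µM and on dose response follow-up; 0% = protein and probe with vehicle and 100% = probe without protein; strong numbers were not always called active; many hits fall short of the cut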
Env fusion inh = blocks HIV Env-driven cell-cell fusion; HeLa-JRFL Env/CEM21 cell fusion, luciferase; inhibition, % at 12.3 µM; AID 651610; 360,000 compounds, 1.1% hits;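 active = mean replicate inhibition score of at least 50 and every replicate individually at or above 50; inconclusive = only one of the two criteria met; inactive = mean below 50 and not all replicates reaching 50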;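 also: 0% = plate neutral controls and 100% = maraviroc near 300 nM; one replicate is shown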
CSC inhib = blocks cancer stem cells; cancer stem cell-like cells viability, luminescence; 300,000 compounds, 1.1% hits; inhibition, % at 7.5 µM;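 active = mean at 75% or more and at least half the replicates too; inconclusive = mean and replicates disagree; tested in HMLE shEcad cells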;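 also: 0% = median of negative and 100% = median of positive control wells; the first replicate is given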
PABP polyA inh = blocks human PABP binding to poly(A) RNA. P11940. fluorescence polarization. inhibition, % at 35 µM. 290,000 compounds, 1% hits. AID 2014;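 active = 50% or more with normal probe brightness, or confirmed in later tests; inconclusive = above 50% with abnormal brightness, or retests that disagree; inactive = below 50% or failed in later tests; about a fifth of its hits are not listed in these tables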;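 also: calls also rest on retests at 20 µM and on dose response follow-up; controls were probe without protein and protein plus probe with vehicle; some compounds called inactive have numbers as strong as hits; many hits fall short of the cut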
Target sequence (P11940 whole entry, looked up): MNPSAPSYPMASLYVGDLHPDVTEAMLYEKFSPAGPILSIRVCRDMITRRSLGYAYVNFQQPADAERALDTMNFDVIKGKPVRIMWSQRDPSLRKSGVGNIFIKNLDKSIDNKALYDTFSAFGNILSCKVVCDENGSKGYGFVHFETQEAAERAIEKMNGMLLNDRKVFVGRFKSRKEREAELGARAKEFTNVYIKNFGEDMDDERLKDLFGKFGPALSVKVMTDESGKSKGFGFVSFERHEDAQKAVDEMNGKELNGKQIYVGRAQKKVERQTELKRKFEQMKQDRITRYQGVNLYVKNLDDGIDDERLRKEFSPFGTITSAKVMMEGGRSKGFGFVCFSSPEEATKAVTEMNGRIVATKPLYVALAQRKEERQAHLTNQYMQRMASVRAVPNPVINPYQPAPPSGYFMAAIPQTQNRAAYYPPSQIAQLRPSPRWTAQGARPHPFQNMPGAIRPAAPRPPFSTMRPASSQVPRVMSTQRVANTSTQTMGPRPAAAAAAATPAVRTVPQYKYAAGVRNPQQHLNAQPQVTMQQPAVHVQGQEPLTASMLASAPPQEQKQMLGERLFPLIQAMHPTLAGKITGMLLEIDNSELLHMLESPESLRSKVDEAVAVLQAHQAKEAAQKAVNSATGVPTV
MT1-MMP act inh = inhibitors of human MT1-MMP activation; 360,000 compounds, 0.061% hits; GFP/RFP ratio change, % at 20 µM; HT1080 RFP-PRO-GFP cells, GFP/RFP ratio fluorescence, overnight; percent of plate control window, DMSO zero;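 active = GFP/RFP ratio change of at least 30% with cell ATP level not reduced by more than half and red fluorescence within 50% of control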; also: strong numbers were not always called active
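Material – HT1080 RFP-PRO-GFP cells · Control set – DMSO wells and RFP-L50D-GFP cells · Incubation – overnight cell settling, then overnight compound exposure, 37 °C, 5% CO2 · Compound dosing – single-point 20 µM compound, 1% DMSO · Read-out – GFP/RFP fluorescence ratio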
Rce1 inh = inhibitors of yeast Ras-converting enzyme; yeast membranes, quenched prenylated peptide cleavage fluorescence; calls only; 290,000 compounds, 0.27% hits; AID 2563;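 active = fall in fluorescence gain of 50% or more versus controls, with final raw signal at or below 3038400; inconclusive = same 50% fall but final raw signal above 3038400; inactive = fall in fluorescence gain under 50%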;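 also: plate controls were neutral control wells for no effect and wells lacking membranes for full effect; tested at 10 µM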
Target sequence (Q03530 whole entry, looked up): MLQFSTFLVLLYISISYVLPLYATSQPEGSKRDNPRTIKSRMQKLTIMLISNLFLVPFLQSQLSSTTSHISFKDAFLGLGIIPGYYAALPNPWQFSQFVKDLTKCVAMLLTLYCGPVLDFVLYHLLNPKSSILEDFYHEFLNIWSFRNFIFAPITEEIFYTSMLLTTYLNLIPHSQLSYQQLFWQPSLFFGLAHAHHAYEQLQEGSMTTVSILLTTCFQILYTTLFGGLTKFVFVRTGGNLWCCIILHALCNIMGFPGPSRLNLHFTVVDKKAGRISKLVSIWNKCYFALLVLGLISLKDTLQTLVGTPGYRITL
eIF4H inh retest = recorded beside eIF4H inh, whose call it bears; inhibition, %; compound at 20 µM; confirmation average;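 mean of two retest wells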
PABP polyA inh retest = second read-out of PABP polyA inh, no call of its own (marks repeat the call); inhibition, %; compound at 20 µM; confirmation repeats;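 mean of two retest wells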
MT1-MMP act inh RFP = recorded beside MT1-MMP act inh, whose call it bears; RFP signal change, %; measured here: RFP expression control read;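 0 = vehicle wells; hits needed this value within 50% of zero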
The depositor's hits bear a star; i = inactive; ? = inconclusive; . = not tested or not shown.

SMILES | Yeast UUG start | eIF4H inh | Env fusion inh | CSC inhib | PABP polyA inh | MT1-MMP act inh | MT1-MMP act inh RFP | Rce1 inh | others
CCOc1ccc(N(CC(=O)N2CCOCC2)S(=O)(=O)c2ccc(F)cc2)cc1 | -12 | -8 | -14 | -1 | 5 | -5 | 3 | i
COc1ccc2c(=O)c3c(=O)n(Cc4ccco4)c(-c4ccco4)nc3oc2c1 | -8 | 86* | -75 | -13 | 80* | -6 | 1 | i
CC(C)Cc1nnc(NC(=O)CCNC(=O)c2ccco2)s1 | -4 | -4 | -11 | 2 | -4 | -1 | -1 | .
COC(=O)c1sc(SC)c(S(=O)(=O)C(C)C)c1N/N=C(\C#N)S(=O)(=O)c1ccccn1 | . | -12 | -12 | 1 | 3 | 6 | 5 | i
CCOC(=O)N1CCN(C(=O)c2ccc(C)c(S(=O)(=O)Nc3cccc(C)c3C)c2)CC1 | 5 | 6 | . | 2 | 5 | 0 | -3 | i
NC(=O)c1ccc(-c2ccc(Br)cc2)o1 | -18 | 2 | -89 | 6 | -5 | 4 | 1 | i
O=C(c1ccccc1)N1CCN(C(=O)c2ccccc2)c2ccccc21 | 4 | . | 2 | . | . | 0 | 6 | .
Cc1ccc(CNC(=O)CCC2CCCN(Cc3c(C)nn(C(C)C)c3C)C2)o1 (stereo not drawn) | -8 | 6 | 3 | -7 | 8 | 0 | 4 | i
C=CCOc1c2ccc(C(=O)NCCc3ccc(C)cc3)cc2nn1C | -4 | -3 | 10 | -6 | 4 | 5 | 0 | i
O=C(Cc1ccc(Br)cc1)NC1CCCc2ccccc21 (stereo not drawn) | -5 | 3 | 5 | -6 | 1 | -4 | -3 | .
COc1ccccc1N(C)S(=O)(=O)c1ccc(C(=O)NC2CCCCCC2)cc1 | -5 | -1 | -1 | 6 | 2 | 0 | -7 | i
N#CC1=C2N=C(N)c3c(sc4c3CCCCC4)N2C2=C(C(=O)CCC2)C1c1ccccc1 (stereo not drawn) | -5 | 50 | -102 | 9 | 30 | -27 | 3 | i
CCOc1ccc(C2Oc3nc(SC)nnc3-c3ccccc3N2C(C)=O)cc1OC (stereo not drawn) | -8 | -1 | 9 | -21 | -6 | 5 | 1 | i
COc1ccc(C(O)c2ncc(-c3cccc(C(F)(F)F)c3)[nH]2)cc1 (stereo not drawn) | -3 | . | 16 | . | . | 5 | -4 | .
Cc1ccc(N2C(=O)CC2(C#N)c2ccc(OCc3ccccc3)cc2)cc1 (stereo not drawn) | -14 | 4 | 1 | 18 | -3 | -4 | -5 | i
Nc1nc(Cl)cc(=O)n1Cc1ccc(Cl)cc1 | . | . | 17 | -17 | . | 3 | 2 | i
CC(C[N+](C)(C)C)OC(=O)C1(c2ccccc2)CCCC1 (stereo not drawn) | . | 2 | 4 | -13 | 47 | -3 | 3 | i
O=C(COC(=O)COc1ccc(Nc2ccccc2)cc1)NCc1ccco1 | 3 | 54 | . | 20 | 0 | 0 | 2 | i | eIF4H inh retest=27;PABP polyA inh retest=13
COc1cc2c(cc1OC)CN(C(=O)c1cccc([N+](=O)[O-])c1)CC2 | -3 | 7 | 6 | -15 | -5 | 2 | -3 | i
Cc1cc(C)c(NC(=O)CN2CCCCCC2)c(C)c1 | -19 | -4 | -8 | -2 | 1 | -2 | 1 | i
CCOC(=O)c1cnc2ccc(C)cc2c1OCc1cc(F)cc(F)c1 | -13 | -6 | -29 | 4 | 5 | 3 | 2 | i
CCOC(=O)c1cn(-c2ccccc2CO)c2c(F)c(F)c(F)cc2c1=O | -10 | -5 | -12 | -6 | 1 | -1 | -6 | i
COc1ccc(Br)cc1S(=O)(=O)Nc1ccc(Cl)cn1 | -18 | 4 | -10 | -3 | 23 | -4 | 1 | i
COc1ccccc1-c1cn(-c2ccccc2)c(=S)[nH]1 | -25 | 3 | 3 | -10 | 12 | 0 | 0 | i
COc1ccc(NC(=O)C2C3C=CC4(O3)C2C(=O)N(CCCN2CCCCC2)C4C(=O)NC2CCCC(C)C2C)cc1 (stereo not drawn) | 0 | -2 | 2 | 6 | 3 | 3 | 2 | i
NC(=O)C1(N2CCCCC2)CCN(C(=S)Nc2ccc(F)c(Cl)c2)CC1 | . | 1 | 10 | -1 | -3 | 1 | -6 | i
Cc1cc(NC(=O)COC(=O)C2CCN(S(=O)(=O)c3ccc(Cl)cc3)CC2)no1 | -2 | -7 | -40 | -5 | 6 | -6 | -3 | i
CC(=O)Nc1cccc(-c2ccnc3c2CC(C)(C(=O)Nc2cccc(NS(C)(=O)=O)c2)O3)c1 (stereo not drawn) | -7 | . | -4 | . | . | 4 | 0 | .
Nc1nc(Cl)cc(Oc2ccccc2F)n1 | . | -12 | 5 | -9 | 4 | -1 | -1 | i
CC(C)(C)c1ccc(C(=O)Nc2ccccc2C(=O)NCCN2CCOCC2)cc1 | -15 | -13 | 5 | -9 | 2 | 0 | -2 | i
O=C(c1ccco1)N1CCN(Cc2cccc([N+](=O)[O-])c2)CC1 | . | -4 | 20 | -11 | -7 | 2 | 1 | i
CN(CC(=O)NCc1ccncc1)S(=O)(=O)c1ccc2ccccc2c1 | . | -4 | 12 | 0 | 4 | 4 | 0 | i
COc1ccc(CCNC(=O)C2CCC(=O)N(CCc3ccc(OC)cc3)C2)cc1 (stereo not drawn) | -15 | -10 | -9 | -9 | -6 | 1 | 0 | i
Nc1ccc2c(C(F)(F)F)cc(=O)oc2c1 | -13 | 5 | -114 | 5 | 9 | -4 | -2 | i
CC1CCCCC1NC(=O)C1CCN(S(=O)(=O)N2CCOCC2)CC1 (stereo not drawn) | . | -1 | -4 | 8 | -12 | 4 | 0 | i
O=C(COC(=O)C1CCN(c2ccc(C(F)(F)F)cn2)CC1)c1ccc(F)cc1 | 2 | . | 1 | -6 | . | 3 | 6 | i
Cc1nn(-c2ccccc2)c(C)c1/C=N/n1c(-c2ccccc2Br)n[nH]c1=S | . | -1 | -2 | 23 | 0 | 2 | 0 | i
C=CCNC(=O)C1CCN(S(=O)(=O)c2ccccc2)CC1 | -23 | 3 | -64 | -7 | 5 | 3 | 9 | i
CC(=C/c1ccccc1)/C=N/n1c(-c2ccco2)n[nH]c1=S | -24 | -6 | -49 | -9 | 7 | 7 | 8 | i
Cc1cc(C)cc(NC(=O)C(NCC2CCCO2)c2ccccc2)c1 (stereo not drawn) | 8 | -1 | 25 | -8 | -14 | -14 | -4 | i
c1ccc(CN(CCN2CCOCC2)Cc2ccccc2)cc1 | -4 | . | -29 | . | . | 3 | -5 | .
FC(F)(F)c1cccc(Cc2noc(CN3C[C@@H]4CCC[C@H]3C4)n2)c1 | . | -11 | -3 | -12 | 6 | -2 | -1 | i
CC(C)(C)OC(=O)CN1C(=O)NC(Cc2c[nH]c3ccccc23)C1=O (stereo not drawn) | -25 | -5 | 17 | -8 | -4 | 0 | 4 | i
COc1ccc(CCNC(=O)C/C(C)=N/NC(=O)c2ccc(Cl)cc2Cl)cc1OC | . | 1 | -10 | -3 | -12 | -1 | 3 | i
COc1ccccc1/C=C1\SC(=S)N(CCC(=O)Nc2nnc(C)s2)C1=O | -20 | -14 | -2 | . | 0 | 3 | 3 | i
Cc1cc(=O)oc2cc(OCCc3ccccc3)ccc12 | -15 | 1 | -8 | 22 | 6 | 0 | 0 | i
CCOC(=O)c1c(C)[nH]c(C)c1C(=O)CSc1nc2ccccc2c(=O)n1-c1ccc(CC)cc1 | . | 1 | 9 | 17 | -2 | -22 | -24 | i
CC(=O)Nc1ccc(NC(=O)C(C)OC(=O)C2CC3C=CC2C3)cc1 (stereo not drawn) | . | -12 | -8 | -10 | 10 | 3 | 5 | i
CSc1cccc(NC(=O)c2ccc(CN3CCc4ccccc4C3)cc2)c1 | -7 | -16 | 28 | 5 | -8 | 5 | -29 | i
c1ccc(COc2cccc(-c3cc4nc(NCCc5ccncc5)ccn4n3)c2)cc1 | -16 | . | 20 | . | . | -9 | -14 | .
C/C(=N\NC(=O)c1c[nH]c2ccccc12)c1ccco1 | -8 | 4 | . | 2 | -13 | 3 | 3 | i
COc1ccc(-c2csc3ncnc(N4CCN(C(=O)c5ccco5)CC4)c23)cc1 | -14 | . | ? | 3 | . | -3 | 4 | i
C=CCN(CC=C)S(=O)(=O)c1ncn[nH]1 | -4 | 38 | . | -8 | 18 | -2 | 7 | i
COc1cccc(/C=N/NC(=O)c2c(C)nc3ccc(Cl)cn23)c1OC | -4 | -9 | 4 | -1 | -6 | 3 | -4 | i
CC1=NN(C(=O)c2ccc(C)cc2)C(O)(C(F)(F)OC(F)(F)F)C1 (stereo not drawn) | -11 | 0 | -23 | 27 | -4 | 3 | 6 | i
COC(=O)[C@@H](NCc1ccc(B(O)O)cc1)C(C)C | -16 | . | 12 | . | . | 1 | 2 | .
COc1ccc(-c2cc3nc(NCc4ccc(N(C)C)cc4)n(C)c(=O)c3s2)cc1OC | 9 | . | 2 | . | . | 15 | -30 | .
O=C(c1ccco1)n1nc(-c2cccnc2)nc1NCc1ccco1 | . | 3 | 3 | . | -15 | -1 | 4 | i
N#Cc1c(NC(=O)CSc2nc(N)cc(=O)[nH]2)sc2c1CCCC2 | . | -8 | 46 | -1 | 8 | 8 | -20 | i
COc1cccc(/C=N/n2c(COc3ccccc3)n[nH]c2=S)c1O | -10 | -2 | -10 | -2 | 0 | 2 | 1 | i

Next records follow:
SMILES | Yeast UUG start | eIF4H inh | Env fusion inh | CSC inhib | PABP polyA inh | MT1-MMP act inh | MT1-MMP act inh RFP | Rce1 inh | others
NC(=O)CSc1nnc(-c2cccs2)n1-c1ccccc1 | -12 | -7 | 18 | . | -16 | -4 | -2 | i
Cn1c(N)c(C(=O)c2cc(-c3ccncc3)nc3ccccc23)c(=O)n(C)c1=O | -9 | 8 | -9 | 10 | 17 | 3 | 4 | i
CCOC(=O)C1=C2NC(=O)c3ccccc3N2C(=O)C1 | . | 71 | -6 | -3 | 4 | -44 | 11 | i | eIF4H inh retest=45;PABP polyA inh retest=49
O=C(NCCC1CCCCN1S(=O)(=O)c1cccs1)C(=O)Nc1cccc(F)c1 (stereo not drawn) | -5 | . | . | 6 | . | 0 | -6 | i
COC(=O)C1CSC(C(=O)OC)N1C(=O)CN1CC(C)OC(C)C1 (stereo not drawn) | -1 | -8 | -23 | -7 | -9 | -8 | -1 | i
CC(C)NC(=O)C1(C)CCN1C(=O)c1ccccc1 (stereo not drawn) | -16 | . | -8 | . | . | 3 | 0 | .
O=C(NC(=S)NCCC1=CCCCC1)c1ccccc1Br | -24 | 8 | 3 | -4 | 13 | -10 | -5 | i
COC(=O)c1cn(-c2cccc(C)n2)cn1 | . | 1 | -2 | -7 | 15 | 4 | 5 | i
Cc1csc(Sc2ccc([N+](=O)[O-])cc2C(=O)OCC(=O)NC(=O)NC(C)(C)C)n1 | -7 | -2 | . | -8 | -6 | -4 | -4 | i

Of the compounds above, these have a nitro group on carbon.
SMILES | Yeast UUG start | eIF4H inh | Env fusion inh | CSC inhib | PABP polyA inh | MT1-MMP act inh | MT1-MMP act inh RFP | Rce1 inh | others
COc1cc2c(cc1OC)CN(C(=O)c1cccc([N+](=O)[O-])c1)CC2 | -3 | 7 | 6 | -15 | -5 | 2 | -3 | i
O=C(c1ccco1)N1CCN(Cc2cccc([N+](=O)[O-])c2)CC1 | . | -4 | 20 | -11 | -7 | 2 | 1 | i
Cc1csc(Sc2ccc([N+](=O)[O-])cc2C(=O)OCC(=O)NC(=O)NC(C)(C)C)n1 | -7 | -2 | . | -8 | -6 | -4 | -4 | i

Some of the compounds tested; count on the stated rates, not on these rows.
